Source: PubChem
Rango release inh – qHTS Assay for Inhibitors of RanGTP induced Rango (Ran-regulated importin-beta cargo) - Importin beta complex dissociation; Snurportin-1 (Homo sapiens) + GTP-binding nuclear protein Ran (Homo sapiens) + Importin …; Potency, µM (doses to about 46.1 µM), inactives show at the highest dose activity change, negative = inhibition; actives 0.071% (n = 340,000); AID 540253, 2011; Biochemical FRET Rango-importin beta, RanGTP-induced dissociation; active means falling FRET ratio curve, often poorly fitted, with flat reads before Ran was added; inconclusive means other falling curves, or compound fluorescence or quenching; inactive means flat or rising ratio curve;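 also: potency is read from the fitted curve at half-maximal effect; % of control where 0% means no effect; nearly all actives have a fitted effect of over 45% in size; -100% = wells without RanGTP and RCC1; the record marks most hits as doubtful in a second field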
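Rango/importin beta premix (0.1/0.25 uM final), PBS + 1 mM DTT + 0.02% Tween-20 + 0.1% BSA; cpd 5 min RT; FRET pre-read; + RanGTP-RCC1 (0.6 uM Ran, 2 mM GTP, 0.2 uM RCC1); 45 min RT; FRET post-read, ex 430, em 486/530 nm.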
miR-21 FLuc – qHTS Assay for Modulators of miRNAs and/orActivators of miR-21; HeLa miR-21 FLuc reporter, luciferase, 48 h; Potency, µM (top dose mostly 38.3 µM), for inactives: at the highest dose reporter change, positive = more light; 340,000 tested, under 10 active; AID 2288, 2010; active = well fitted rising curve with a large enough effect; inconclusive = small, poorly fitted or top-dose-only effect; inactive = no such curve, though single readings can be large or run the other way;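 also: % of control where 0% means no effect; miR-21 action dims this reporter so a rising signal means less miR-21 action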
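Using DMEM plus 10% FBS, HeLa miR-21-FLuc cells are incubated with test compounds (final up to about 40uM) for 48 hours; firefly luciferase signal is then imaged following reagent-mediated lysis.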
Rango complex inh – qHTS Assay for Inhibitors of Rango (Ran-regulated importin-beta cargo) - Importin beta complex formation. Importin subunit beta-1 (Homo sapiens), Q14974. Rango CFP/YFP FRET sensor + importin beta, 45 min. Potency, µM (highest dose often 92.2 µM), inactives show top-dose inhibition of complex formation. actives 0.031% (n = 340,000). AID 540263, 2011; active = rising FRET ratio curve, often small or poorly fitted; inconclusive = mostly compound fluorescence or quenching in the first reads; inactive = flat curves in all reads;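 also: potency is read from the fitted curve at half-maximal effect; 0% = DMSO wells and 100% = buffer wells lacking importin beta; nearly all actives have a fitted effect of over 15% in size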
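FRET biosensor Rango (snurportin 1 IBB between N-terminal EYFP and C-terminal Cerulean), 50 nM in PBS/1 mM DTT/0.02% Tween-20/0.1% BSA, preincubated 5 min RT with compound; 0.125 microM importin beta added, 45 min RT, CFP/YFP FRET ratio read.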
GLA inh pH 4.5 – qHTS Assay for Inhibitors of Human alpha-Galactosidase at pH 4.5; Alpha-galactosidase A (Homo sapiens), P06280; purified enzyme, 4-MU-alpha-Gal fluorescence, pH 4.5; activity change, negative = inhibition, % at 105 µM; 230,000 tested, under 10 active; AID 1467, 2008; inconclusive = small, poorly fitted or top-dose-only inhibition, or a rising curve; inactive = flat fitted curve, though single readings scatter; no compound was filed as active;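 also: 0% = full activity with enzyme and -100% = basal without enzyme; dose as in the result columns while the protocol names 77 µM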
Target sequence (P06280 whole entry, looked up): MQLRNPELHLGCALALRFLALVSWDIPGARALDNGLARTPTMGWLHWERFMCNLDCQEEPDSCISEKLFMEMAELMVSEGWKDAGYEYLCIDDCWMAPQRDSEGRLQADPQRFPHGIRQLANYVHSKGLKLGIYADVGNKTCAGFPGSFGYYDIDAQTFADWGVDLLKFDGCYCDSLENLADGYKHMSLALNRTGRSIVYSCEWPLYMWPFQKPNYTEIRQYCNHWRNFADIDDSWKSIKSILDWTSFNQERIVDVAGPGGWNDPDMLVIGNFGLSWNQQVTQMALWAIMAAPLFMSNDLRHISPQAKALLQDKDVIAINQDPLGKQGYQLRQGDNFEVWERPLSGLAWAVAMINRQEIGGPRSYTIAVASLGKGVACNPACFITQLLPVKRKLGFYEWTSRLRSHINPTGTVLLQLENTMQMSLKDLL
* marks the source's active call; other numbers are inactive results; u = inconclusive; x = no result given; & = joins results of further samples.

SMILES	Rango release inh	miR-21 FLuc	Rango complex inh	GLA inh pH 4.5
O=C(NC1(C(=O)O)CCCC1)c1ccccc1	17%	x	-2.6%	x
O=C(CCCN1C(=O)/C(=C/c2ccccc2Cl)SC1=S)N1CCCC1	9%	u	3.6%	x
CC1(C)CC(NC(=O)C2CCCCC2C(=O)O)CC(C)(C)N1 (stereo unspecified)	8%	2%	-1.6%	-3
O=C(COC(=O)c1ccc2c(c1)OCO2)Nc1ccccc1OC(F)F	10%	x	-0.8%	x
CCCCN(Cc1ccccc1)C(=O)C1CCN(S(=O)(=O)c2c(C)noc2C)CC1	-10%	0%	5.0%	6
COc1ccc(CNC(=O)CCNS(=O)(=O)c2ccc(Br)s2)cc1	15%	4%	-0.2%	x
CC(=O)Nc1ccc(OCC(O)CN2C(C)(C)CC(O)CC2(C)C)cc1 (stereo unspecified)	16%	-6%	u	6
Cc1ccc(C(=O)NC(=S)Nc2cccc(-c3nc4ccccc4s3)c2)cc1	13%	-30%	1.9%	-3
O=C(NCCNC1CCCCC1)c1ccco1	-13%	12%	1.3%	x
CCOc1ccc(N2C(=O)C3Sc4[nH]c(=O)sc4C(/C=C/c4ccccc4)C3C2=O)cc1 (stereo unspecified)	u	-8%	u	-1
CCC[n+]1c(C)sc2c(OC)ccc(OC)c21	9%	2%	0.4%	0
COc1cc(C(=O)N/N=C(\C)c2ccc3c(c2)OCO3)cc(OC)c1OC	1%	26%	1.9%	1
Cc1ccc(-n2nnc(-c3cnc4ccccc4c3)n2)cc1	8%	-54%	-4.9%	-1
Cc1ccccc1NC(=O)CSc1nc(N)c(C#N)cc1C#N	0%	-23%	1.2%	3
CCOC(=O)C1=C(N)n2c(s/c(=C\c3cccnc3)c2=O)=C(C(=O)OCC)C1c1cccnc1 (stereo unspecified)	x	-2%	x	3
Cc1nn(C)cc1S(=O)(=O)N1CCN(Cc2ccc(F)cc2Cl)CC1	-14%	-3%	1.0%	6
CCCCOc1ccc(CSCCN)cc1Cl	20%	-3%	-3.1%	-2
CC(C)CCNC(=O)C(c1ccco1)N(Cc1ccc(F)cc1)C(=O)c1snc(C(N)=O)c1N (stereo unspecified)	6%	5%	-4.9%	1
CCN(CC)S(=O)(=O)N1CCN(S(=O)(=O)N2CCOCC2)CC1	-1%	-1%	-2.8%	16
O=C(CCc1nnc2ccc(NCc3ccco3)nn12)N1CCN(c2ccccc2)CC1	-5%	-5%	-4.4%	x
COCCN1C=C2C(=O)C(C)(OC(=O)c3cccs3)C(=O)C=C2C=C1CCCC(=O)OC (stereo unspecified)	21%	9%	u	-3&-15
CCCCCc1nc2ccccc2c(=O)n1N	u	-28%	-4.7%	4
CCOC(=O)CN(C(=O)COc1nc(-c2ccccc2)cc(C)c1C#N)c1ccccc1C	-13%	0%	-1.6%	-5
O=C1CN(C(=O)/C=C/c2ccccc2)CCN1	-1%	-1%	6.6%	x
NS(=O)(=O)c1ccc(CNC(=O)c2ccc(NS(=O)(=O)c3ccc4[nH]c(=O)[nH]c4c3)cc2)cc1	21%	x	-1.3%	x
C/C(=C\C(=O)c1ccc(C)cc1)Nc1cccc(O)c1	-2%	-63%	1.2%	-2
COc1ccccc1C(=O)Nc1ccc(S(=O)(=O)N2CCCCC2)cc1	1%	4%	0.4%	x
CCOc1ccccc1C(=O)Nc1nn[nH]n1	0%	-11%	-1.2%	12
COC(=O)c1c(N)c(C#N)c2n1CCCCC2	-12%	-9%	1.0%	5
COc1cccc(/C=N/NC(=O)CCCC(=O)Nc2ccc(Br)cc2)c1	12%	-7%	1.2%	-3
CC1(C)Cc2c(sc3ncn4nc(CCC(=O)O)c(=O)nc4c23)CO1	9%	-2%	1.2%	0
O=C1N[C@@H](c2ccccc2)COC(=O)[C@H](Cc2ccc(F)cc2)CC/C=C/C[C@H]1CC(=O)N(CCO)Cc1ccccc1	-4%	x	-2.7%	x
COc1ccc(-c2cc(C(=O)Nc3cccc(C(C)=O)c3)no2)cc1	-11%	-10%	-0.6%	0
O=C(COC(=O)c1ccc(S(=O)(=O)N2CCCC2)cc1)Nc1cccc(Cl)c1	-16%	x	0.0%	x
CCc1cc(-c2n[nH]c(C)c2Oc2ccc(C(C)C)cc2)c(O)cc1O	35%	13%	-3.6%	-1
CCCS(=O)(=O)N1CCCC(C(=O)N2CCN(c3ccccn3)CC2)C1 (stereo unspecified)	13%	-4%	0.1%	-5
O=C(CN1C(=O)S/C(=C\c2ccccc2)C1=O)Nc1cc([N+](=O)[O-])ccc1O	10%	-10%	0.3%	x
Cc1c(-c2ccccc2)nc2ccccc2c1C(=O)Nc1ccncc1	4%	3%	0.2%	x
Cc1cc(-c2nc(C)c(C(=O)NNC(=O)NC(C)C)s2)no1	-3%	9%	0.7%	-2
O=C(COC(=O)CCc1nc2ccccc2n1-c1ccccc1)Nc1ccc(N2CCCCC2)cc1	0%	-8%	-0.4%	-19
O=C(NCCCN1CCCC1=O)c1cc(=O)c2ccccc2o1	14%	-3%	u	-7
Cc1cccc2c(CC(=O)Nc3ccccc3)noc12	1%	-40%	2.7%	-3
CCCOc1ccc(-c2nnc(-c3cccs3)o2)cc1	-13%	-57%	-4.0%	0
CCOc1cc(C2NC(=O)CCC2[N+](=O)[O-])cc(Br)c1OC (stereo unspecified)	9%	3%	1.9%	x
COc1cc(/C=N/NC(=O)CCC(=O)Nc2ccc(C)cc2)ccc1O	0%	-1%	3.4%	-8
Fc1ccccc1CSc1ncnc2c1oc1ccccc12	10%	-3%	4.5%	0
CC(=O)c1c(COC(=O)c2cccc(C)c2)nc2ccccc2[n+]1[O-]	6%	-2%	2.7%	-6
C=CCn1c(SCC(=O)N2CCc3ccccc3C2)nc2ccccc2c1=O	22%	16%	-4.4%	-2
CCOc1ccc(CN(C)C(=O)CCNC(=O)c2ccco2)cc1	-10%	x	0.4%	x
Cc1nn(CC(C)C)c(Cl)c1C(=O)N(c1ccc(Cl)cc1F)S(C)(=O)=O	-7%	7%	0.9%	x
Cc1[nH]c2ccccc2c1C(=O)C(C)OC(=O)c1ccc(NC(=O)CC#N)cc1 (stereo unspecified)	3%	x	0.1%	x
COc1ccc(CC(=O)Nc2ccc(S(=O)(=O)Nc3nccc(C)n3)cc2)cc1	12%	-9%	u	2
COc1ccc(C(=O)N2CCc3cc(OC)c(OC)cc3C2)cc1OC	3%	-5%	-0.2%	3
Cc1cc2c(N)cccc2nn1	17%	-6%	-1.1%	-4
Cc1cc2cc(CNC(=S)Nc3ccc(OC(F)(F)F)cc3)ccc2n1C	u	-2%	u	-2
O=C(COc1ccc(Cl)cc1)N(Cc1cccs1)C1CCS(=O)(=O)C1 (stereo unspecified)	11%	1%	-3.8%	x
CC(C)(C)c1ccc(COc2ccsc2C(=O)O)cc1	16%	-32%	2.6%	3
COc1ccc(NS(=O)(=O)c2ccc3c(c2)CCCN3C(C)=O)cc1	2%	7%	-0.3%	x
COc1ccc(OCCSc2nc3ccccc3n2CCC(=O)O)cc1	u	-6%	3.3%	x
Cc1nnsc1C(=O)N1CCCC(C(=O)c2ccc(C(F)(F)F)cc2)C1 (stereo unspecified)	20%	-1%	-1.3%	-2

Next part:
SMILES	Rango release inh	miR-21 FLuc	Rango complex inh	GLA inh pH 4.5
O=C(C[n+]1ccccc1)N/N=C/c1cc(Br)ccc1O	-25%	-4%	4.1%	x
Cc1nnc(SC(C)C(=O)NC2CCCCC2C)n1N (stereo unspecified)	10%	x	-2.0%	x
COC(=O)c1sccc1NC(=O)Nc1cccc(C)c1	u	-14%	-1.3%	-6
COC(=O)CSc1nnc(-c2c[nH]c3ccccc23)o1	-2%	0%	3.6%	x
Oc1ccccc1-c1cc(-c2cccc(F)c2)n[nH]1	8%	-20%	2.0%	-10
COc1ccc(CNC(=O)COC(=O)c2cc(-c3ccco3)nc3ccccc23)cc1	x	2%	x	6
COc1ccc(-c2c(C)oc3cc(O)cc(O)c3c2=O)cc1OC	-21%	-32%	u	7
CCCN(CCC)C1Sc2ccc(C(=O)OC)cc2NC1=O (stereo unspecified)	11%	0%	1.8%	3
CCOc1ccc(NC(=O)N2CCN(c3nc4ccccc4s3)CC2)cc1	4%	-5%	0.3%	2
CCN(Cc1ccccc1)c1ccc(/C=N/NS(=O)(=O)c2cccc([N+](=O)[O-])c2)cc1	-8%	-3%	1.1%	-8
CCOc1ccc2nc(SCC(=O)c3ccc(O)cc3O)sc2c1	1%	-9%	-4.0%	x
Cc1cc(NC(=O)c2ccccc2)nc(C)n1	-11%	-2%	-1.0%	2

Given with bars between the fields: part of the list above.
Structure | Rango release inh | miR-21 FLuc | Rango complex inh | GLA inh pH 4.5
COC(=O)CSc1nnc(-c2c[nH]c3ccccc23)o1 | -2% | 0% | 3.6% | x
COc1ccc(-c2c(C)oc3cc(O)cc(O)c3c2=O)cc1OC | -21% | -32% | u | 7
CCOc1ccc2nc(SCC(=O)c3ccc(O)cc3O)sc2c1 | 1% | -9% | -4.0% | x
CCN(Cc1ccccc1)c1ccc(/C=N/NS(=O)(=O)c2cccc([N+](=O)[O-])c2)cc1 | -8% | -3% | 1.1% | -8
O=C(C[n+]1ccccc1)N/N=C/c1cc(Br)ccc1O | -25% | -4% | 4.1% | x
COc1ccc(CNC(=O)COC(=O)c2cc(-c3ccco3)nc3ccccc23)cc1 | x | 2% | x | 6

Next section
SMILES	Rango release inh	miR-21 FLuc	Rango complex inh	GLA inh pH 4.5
CSCCC(NC(=O)OCc1ccccc1)C(=O)NCc1cccnc1 (stereo unspecified)	0%	-7%	-0.5%	x
C=CCNC(=O)c1cc(-c2ccc3c(c2)OCO3)on1	-25%	-4%	-0.1%	x
COc1cc(/C=C/c2ccc3cccc(O)c3n2)cc(OC)c1OC	-4%	u	-4.5%	x
Cc1cc(Nc2ccccc2Cl)nc(-c2ccccc2O)n1	-3%	-15%	2.9%	x
CC(CCc1ccccc1)NC(=O)Cc1ccc(Br)cc1 (stereo unspecified)	15%	-9%	2.3%	x
COc1ccc2[nH]cc(C(=O)CN3CCCCC3C)c2c1 (stereo unspecified)	x	-9%	x	2
COc1ccc(Cl)cc1/C=N/NC(=O)c1c(-c2ccccc2)noc1C	17%	3%	-2.5%	x
Cc1ccc(OCCCC(=O)Nc2nncs2)cc1	9%	-24%	-4.4%	-2
CCN(C(=O)C(C)Cl)c1ccccc1 (stereo unspecified)	-21%	5%	-2.9%	-2
Cc1ccc(C)c(NC(=O)COC(=O)COc2cccc3c2OC(C)(C)C3)c1	12%	x	1.6%	x
O=C(COC(=O)c1cc([N+](=O)[O-])ccc1N1CCOCC1)NCCc1ccccc1	10%	1%	-2.7%	x
O=C(CSc1nncn1-c1ccccc1)Nc1cc(F)ccc1F	-5%	-3%	-4.5%	x
Cc1cc(C(=O)Cn2nc(C(=O)O)c3ccccc3c2=O)c(C)n1CCc1ccc(F)cc1	-24%	5%	-7.0%	-8
CCn1c(=O)c(C(=O)CN2CCN(S(=O)(=O)c3ccccc3)CC2)c(N)n(Cc2ccccc2)c1=O	2%	5%	-3.7%	-1
CC(C)=CCC[C@](C)(O)C1CC[C@]2(C)C1[C@H](O)CC1[C@@]3(C)CC[C@H](O[C@@H]4O[C@H](CO)[C@@H](O)[C@H](O)[C@H]4O[C@@H]4O[C@H](CO)[C@@H](O)[C@H](O)[C@H]4O)C(C)(C)C3CC[C@]12C (stereo partly specified)	17%	x	-1.5%	x
O=C(CSc1nc(=O)n2ccccc2n1)Nc1ccc2c(c1)OCO2	6%	x	u	x
CCCCOc1cccc(-c2nnc(N)s2)c1	13%	-44%	1.3%	2
CC(C)n1c(CCC(=O)O)ccc1-c1ccccc1	2%	-7%	2.5%	-8

Some of the compounds tested. The share of hits here may be higher or lower than overall.
